VACV Venus inh: vaccinia inhibition (Venus reporter) | Vaccinia virus Venus reporter expression, fluorescence | Potency, µM (top dose mostly 36.5 µM), for the others: at the top dose activity change, negative = inhibition, usual class: inhibitors | actives 0.46% (n = 330,000) | AID 720580; active means well fitted inhibition curve with a large enough effect; inconclusive means small, poorly fitted or top-dose-only effect; inactive means no such curve, though single readings can be large or run the other way; tested in A549 cells; further: nearly all actives have a fitted effect of over 30% in size; inactives centre near -10
VACV mCherry inh: vaccinia inhibition (mCherry reporter); actives 0.63% (n = 310,000); Vaccinia virus mCherry reporter infection, fluorescence; about a quarter of the inactives have no number; Potency, µM (top dose mostly 36.5 µM), inactives show at the highest dose activity change, negative = inhibition, actives largely listed as inhibitors; active = well fitted inhibition curve with a large enough effect; inconclusive = small, poorly fitted or top-dose-only effect; inactive = no such curve, though single readings can be large or run the other way; tested in A549 cells; further: nearly all actives have a fitted effect of over 35% in size; inactives centre near -10
An asterisk follows results filed as active; i = inactive; ? = inconclusive; nt = not tested or not shown; & = joins results of further samples. On the % scale 0 is the no-effect control and ±100 the full control effect; potency means the concentration at half of the fitted maximal effect.

canonical_smiles	VACV mCherry inh	VACV Venus inh
CC(=O)N/C(N)=N/c1nc2cc([N+](=O)[O-])ccc2o1	-1%	-22%
CCCNC(=O)c1cc2c(c(-c3cccc(-c4ccccc4F)c3)n1)[C@H](CCO)N(C(=O)CC1CC1)C2	-28%	-22%
Cc1ccc2nc(NC(=O)CCn3c(=O)sc4ccccc43)sc2c1	i	-7%
CC1(C)CC(=O)C2=C(C1)N(c1ccc(F)cc1)C(=O)CC2c1cccnc1 (stereo not given)	i	1%
Cc1[nH]c2ccccc2c1SCc1nnc(SCc2ccc(Cl)cc2)n1C	?	-24%
O=C(Nc1ccc2c(c1)OCO2)c1ccc([N+](=O)[O-])cc1[N+](=O)[O-]	?	-27%
CCOC(=O)N1CCC(NC(=O)c2cc(S(=O)(=O)N3CCCCC3)ccc2F)CC1	i	-7%
COc1ccc(NC(=O)N(C)C[C@@H]2Oc3c(NC(=O)Nc4c(C)noc4C)cccc3C(=O)N([C@@H](C)CO)C[C@@H]2C)cc1	-14%	-8%
CCOC(=O)NS(=O)(=O)c1ccc(CCNC(=O)c2cc(C)on2)cc1	-14%	-12%
CCOC(=O)N1CCN(C(=O)CSCc2ccccc2C)CC1	nt	8%
COC(=O)[C@@H](Cc1ccccc1)NC(=O)NCCc1ccccc1	i	-2%
COc1ccc(C)cc1NC(=O)c1oc2ccc(S(=O)(=O)N3CCOCC3)cc2c1C	-19%	-4%
O=C(CCC1CCCC1)N1CCC(N2CCCCCC2)CC1	i	-14%
O=C(O)C1CC(=O)N(c2ccc(OCc3ccc(Br)cc3)cc2)C1 (stereo not given)	i	-12%
CN1C(=O)C2(SCC(=O)N2c2ccc(Cl)cc2)c2ccccc21 (stereo not given)	-2%	-4%
CCn1c(/C=C\c2ccccc2C)nc2ccccc2c1=O	i	-24%
O=C(O)COc1ccccc1/C=N/NC(=O)CNC(=O)c1ccc(F)cc1	-18%	-2%
O=C(CSc1nnc(CSc2nc3ccccc3s2)o1)NC1CCCCC1	nt	?
CCOC(=O)N1CCN(c2c(N3CCC(N4CCCCC4)CC3)c(=O)c2=O)CC1	i	-20%
Cc1cc(=O)n2nc(N3CCC(C(=O)NCc4ccc(Cl)cc4)CC3)sc2n1	3%	7%
CNNCc1ccc(C(=O)NC(C)C)cc1	i	-13%
CCN(CC)S(=O)(=O)c1ccc2c(c1)N(CC(=O)Nc1c(C)cccc1C)C(=O)CO2	-14%	-18%
CN1C(=O)C2CCCCN2c2ccc(C(=O)NCc3ccccc3Br)cc21 (stereo not given)	-7%	14%
CC(C)CN1Cc2cc(N3CCCCC3)ccc2-n2nncc2C1	15%	-8%
FC(F)(F)c1ccc(N/N=C/c2cccnc2)nc1	?	?
CCn1c(=O)c(C(=O)NCc2ccc(OC)cc2)c(O)c2ccccc21	-13%	5%
Cc1ccc(CCNC(=O)C2CCCN(S(=O)(=O)c3ccc4c(c3)oc(=O)n4C)C2)cc1 (stereo not given)	-3%	-5%
COc1ccc(NC(=O)CSc2c3c(nc4cc(Cl)ccc24)CCCC3)cc1OC	-7%	-14%
COc1ccc(CC(=O)NC(C)c2nnc(SCCC(=O)Nc3ccccc3)n2C)cc1 (stereo not given)	-5%	-11%
CC(=O)Nc1c(O)nc(SCC(=O)Nc2cccc(C)c2)[nH]c1=O	-13%	-15%
O=C(NCC(c1ccco1)N1CCCCC1)c1ccc(COc2ccc(Cl)cc2)cc1 (stereo not given)	?	-15%
Cc1cccc(NC(=O)NNC(=O)c2c(Cl)c(C)nn2C)c1	i	-7%
C=C(C)c1cccc(C(C)(C)NC(=O)N2CCN(c3ccccc3OC)CC2)c1	i	-18%
Cc1sc2c(c1C)C(=O)NC(c1ccccc1F)N2 (stereo not given)	i	0%
CCc1ccc(C(=O)NNc2cc(Cl)cc(Cl)c2)cc1	?	-1%
CCc1ccc(CNC(=O)c2ccc3c(c2)nc2n3CCC(C)C2)cc1 (stereo not given)	-13%	-10%
O=C1NC(c2ccc(Cl)cc2)Nc2ccccc21 (stereo not given)	-2%	-8%
Cc1cccc(NC(=O)CN(C)CC(=O)NC(c2ccccc2)c2ccccc2)c1C	-26%	-10%
COc1ccccc1/C=C/C(=O)OCc1nc2ccccc2c(=O)[nH]1	i	-7%
COc1ccc(S(=O)(=O)N2CCC(C(N)=O)(N3CCCCC3)CC2)cc1OC	-8%	0%
COc1ccc(NC(=S)N2CCC(N(C)CCN3CCOCC3)CC2)cc1	-15%	-6%
CCC(C)NC(=S)NNC(=O)c1ccncc1 (stereo not given)	-2%	-10%
c1ccc(CNCC2COc3ccccc3O2)cc1 (stereo not given)	-14%	-4%
CCOc1ccccc1NC(=O)N1CCN(C)c2ncccc21	-3%	-8%
COC(=O)N1C/C=C\C(c2ccc(OC)cc2)N(Cc2ccc(F)cc2)C(=O)C1 (stereo not given)	-19%	-22%
Cc1cc(NC(=O)c2ccc3c(c2)OCCO3)no1	-30%	-22%
COC(=O)c1ccc[n+](CCc2c[nH]c3ccccc23)c1	2%	-3%
CCc1ccc2c(c1)cc(CN(C(=S)Nc1ccccc1)C1CC1)c1nnnn12	i	-14%
O=C(OCC(=O)N1CCC(Cc2ccccc2)CC1)c1ccccc1	-5%	-6%
Cc1noc(C)c1C(=O)NCCc1ccccc1	i	-10%
COc1ccc(-n2ncc3c(SCC(=O)OC(C)C)ncnc32)cc1	i	-5%
Cc1cc(NC(=O)CSc2nc3c(cnn3-c3cccc(Cl)c3)c(=O)[nH]2)no1	-12%	-10%
COC(=O)Cc1ccc(NC(=S)NNC(=O)c2ccccc2Br)cc1	-12%	-3%
COc1cc(C2CC(=O)Nc3c2c(C)nn3-c2nncc(-c3ccccc3)n2)cc(OC)c1OC (stereo not given)	8%	1%
O=c1n(Cc2ccccc2)nc2n1-c1ccccc1OC2	-6%	-15%
Cc1ccc(S(=O)(=O)N2CC(C)N(C(=O)N3CCOCC3)C2)cc1 (stereo not given)	6%	1%
Cc1cccc(OCCCC(=O)NNC(=O)c2ccncc2)c1	-14%	?
NC(=O)c1nc[nH]c1C(=O)Nc1cccc(NC(=O)c2cccc(C(F)(F)F)c2)c1	-5%	-9%
O=C(NC1CCCCC1)C12CC3CC(CC(Cl)(C3)C1)C2	i	-5%
Cc1cccc(C)c1OCC(=O)Nn1c(=O)[nH]c2ccccc2c1=O	-5%	3%

Continuation.
canonical_smiles	VACV mCherry inh	VACV Venus inh
O=C(COc1coc(CN2CCc3ccccc32)cc1=O)NCCc1ccccc1	-24%	-14%
CCN(c1ccccc1)S(=O)(=O)c1ccc(C(=O)NCC(c2cccs2)N(C)C)cc1 (stereo not given)	-22%	-18%
COc1cccc(NC(=O)c2c(-c3ccc(C)cc3)nnc3ccccc23)c1	-6%	-20%
O=S1(=O)CC(N2CCN(CCO)CC2)CN1Cc1cn(Cc2ccccc2C(F)(F)F)nn1 (stereo not given)	16%	-6%
CCOc1ccccc1CNC(=O)c1[nH]c2ccccc2c1Sc1ccccc1	-8%	-15%
O=c1cc(C=NNc2ccccc2)[nH]c(=O)[nH]1	-5%	-1%
CC(=O)c1cccc(OCc2cc(C(=O)N3C[C@@H](C)O[C@@H](C)C3)no2)c1	-1%	-12%
COc1ccc(-c2oc3ncnc(NCCN4CCOCC4)c3c2-c2ccc(OC)cc2)cc1	0%	-10%
COc1cccc(CC(NC(C)=O)C(=O)NC2CCN(C(=O)Nc3ccc(C)cc3)CC2)c1 (stereo not given)	5%	-7%
Cc1ccc(C)c(C(O)c2ncc(-c3ccc4ccccc4c3)[nH]2)c1 (stereo not given)	-12%	-4%
O=C(CCc1ccccc1)Nc1nnc(-c2ccc3c(c2)OCCO3)o1	-2%	-3%
CCCCCC(=O)N1CCCC1	i	2%
COC(=O)[C@]1(C)N[C@H](CN(C)C(=O)c2ccc(C)cc2)[C@@H]2C(=O)N(C)C(=O)[C@@H]21	i	0%
CC(C)(C)C(=O)Nc1ccnn1C1CCN(C(=O)c2cccc(Cl)c2)CC1	-9%	4%
Cc1ccc(S(=O)(=O)N2CCOCC2)cc1NC(=O)CSc1ccc(Cl)cc1	i	-18%
O=C(/C=C/c1ccc(F)cc1)N1CCCc2ccccc21	-11%	-4%
Nn1c(SCC(=O)Nc2ccc3c(c2)OCO3)nncc1=O	-3%	7%
CCN1CCN(C(=O)CN(c2ccc(F)c(Cl)c2)S(C)(=O)=O)CC1	i	-11%
CCCCn1c(N)c(N(CC(C)C)C(=O)COC(=O)Cc2cccc(OC)c2)c(=O)[nH]c1=O	-18%	-18%
CC(C)CCn1c(=O)c2cccnc2n(CC(=O)Nc2ccc(F)cc2)c1=O	-16%	0%
COc1ccc(N2CCN(c3ncnc4onc(-c5ccc(F)cc5)c34)CC2)cc1	-13%	-12%
C[C@H]1NC(=O)[C@]2(C)[C@@H](c3ccccc3)[C@H]3COc4ccccc4[C@@H]3N2C1=O	i	-6%
CC(=O)Nc1ccc2nc(NC(=O)c3ccc([N+](=O)[O-])o3)sc2c1	?	?
O=C(C[C@H]1C(=O)N(c2ccc(F)c(F)c2)C[C@@H]1Cc1ccccc1)Nc1ccccc1	-12%&-5%	-2%&-12%
Cc1ccc(-c2nnn(CC(=O)N(c3cccc(F)c3)C(C(=O)NC(C)(C)C)c3ccco3)n2)o1 (stereo not given)	-4%	-15%
C=CCNS(=O)(=O)CC12CCC(CC1=O)C2(C)C (stereo not given)	-14%	-5%
Cc1ccc(-c2nc(NC(=O)c3ccc(S(=O)(=O)N(CCC#N)CCC#N)cc3)sc2-c2ccccc2)cc1	-4%	-6%
CC1CCC(=C(C#N)C(=O)Nc2cccc(Cl)c2)CC1 (stereo not given)	i	-8%
Cc1cccc(C(=O)NCC(c2cccs2)S(=O)(=O)c2cccs2)c1 (stereo not given)	-11%	8%
Cc1cccc(NC(=O)CSCC(=O)Nc2cc(S(=O)(=O)N3CCOCC3)ccc2OC(C)C)c1	i	-17%
CCCn1c(C2CCCN2c2nc(-c3cccc(Br)c3)cs2)nc2cc(Cl)c(Cl)cc21 (stereo not given)	-19%	-17%
Cc1c(C(=O)NCc2ccc(F)cc2)sc2nc(-c3ccc(F)cc3)cn12	-10%	-20%
CC(C)Oc1cccc(C(=O)C2CCCN(C3CCOCC3)C2)c1 (stereo not given)	-7%	-12%
COc1nccnc1NS(=O)(=O)c1ccc(NC(=S)NC(=O)c2ccc(F)cc2)cc1	-26%	-13%
CCOC(=O)Cn1cnc2c(cnn2-c2ccc(OC)cc2)c1=O	-13%	4%
CCc1cccc(NS(=O)(=O)c2cc(-c3cnc(C)o3)ccc2OC)c1	-14%	-8%
CCC1CN(C(=O)Nc2cccc3c2CCCC3)c2cc(C)ccc2O1 (stereo not given)	12%	-5%
CCCc1nc2ccccc2n2c(-c3cccc(C)c3)c3c(=O)n(C)c(=O)n(C)c3c12	-14%	-6%
Cc1ccc(NCc2nnc(SCC(=O)N3CCCc4ccccc43)o2)c(C)c1	-4%	-10%
O=C(NCC(=O)N1CCCC1)c1ccc(Cl)cc1	i	-13%

A section from the list above, for reference:
canonical_smiles	VACV mCherry inh	VACV Venus inh
CCC1CN(C(=O)Nc2cccc3c2CCCC3)c2cc(C)ccc2O1 (stereo not given)	12%	-5%
CCCc1nc2ccccc2n2c(-c3cccc(C)c3)c3c(=O)n(C)c(=O)n(C)c3c12	-14%	-6%
Cc1ccc(NCc2nnc(SCC(=O)N3CCCc4ccccc43)o2)c(C)c1	-4%	-10%
O=C(NCC(=O)N1CCCC1)c1ccc(Cl)cc1	i	-13%

Remaining list, next part.
canonical_smiles	VACV mCherry inh	VACV Venus inh
C=CCn1c(SCC(=O)Nc2ccc(N3CCOCC3)cc2)nnc1-c1ccncc1	-2%	-1%
O=c1[nH]c2cc3c(cc2cc1CN(CC1CCCO1)S(=O)(=O)c1ccccc1)OCCO3 (stereo not given)	?	-9%
Cc1c(NC(=O)CN2C(=O)C(=O)c3ccccc32)c(=O)n(-c2ccccc2)n1C	7%	2%
COCCOC(=O)c1c(C)n(C)c2ccc(OC(=O)N(C)C)cc12	-14%	-12%
Cc1ccsc1C1Nc2ccc3ncccc3c2C2=C1C(=O)CCC2 (stereo not given)	-13%	-25%
CC(=O)c1ccc(N2CCN(C(=O)C3CCN(S(=O)(=O)c4cccc5nonc45)CC3)CC2)cc1	1%	2%
O=C(CSc1ccc(-c2ccccn2)nn1)N1CCCc2ccccc21	?	?
O=C(COC(=O)CSc1ccc(F)cc1)NCCCc1ccccc1	-12%	-5%
O=C1NC(=O)N(Cc2ccccc2F)C1=O	i	-14%
COc1ccccc1Oc1ccc(-c2cnc3ccccc3n2)cc1[N+](=O)[O-]	?	-11%
CC1CC(C(F)(F)F)n2ncnc2N1 (stereo not given)	nt	-11%
CC(C)(C)OC(=O)N1CCC[C@H]1C(=O)OCC(=O)Nc1cc(S(C)(=O)=O)ccc1Cl	i	-15%
Cc1cc(N2CCOCC2)n2nc(C)c(-c3ccccc3)c2n1	nt	?
CN(C)C(=O)CCc1ccc2c3c([nH]c2c1)[C@]1(CCc2ccccc2)[C@@H](C(=O)N2CCCCC2)C[C@H](CC(=O)NC(C)(C)C)C(=O)N1CC3	i	-26%

Hits appear at their usual frequency; 0.86% or so of the library scored in one or more.
